# From PubChem BioAssay
# YopH inh: YopH (Yersinia) phosphatase inhibition. 140,000 compounds, 0.16% hits. AID 898. inhibition, %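 (about 10 µM by stock and volumes)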. fluorescence Ex485/Em525;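 active = inhibition of 50% or more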;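 note: controls were vehicle for no effect and minimum signal wells for full effect; inactives centre near -20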
# Mtb growth: M. tuberculosis H37Rv growth inhibitors, H37Rv strain (AID 1626); M. tuberculosis H37Rv growth inhibition; higher % means a stronger effect; 220,000 compounds, 0.95% hits; inhibition, % at 10 µM; hits with a dose series show IC50 in µM;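 active = confirmed in a dose series; inconclusive = inhibition above 80% but not taken into the dose series; inactive = below 80% or under 30% at every dose of the series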;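 note: bacteria incubated seven days before Alamar blue readout; 0% = bacteria only wells and 100% = bacteria with antibiotic wells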
# RecA splice inh: inhibitors of M. tuberculosis RecA intein splicing | P9WHJ3 | cell-free RecA intein splicing, fluorescence | inhibition, %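 (about 9 µM by stock and volumes)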 | 290,000 compounds, 0.75% hits | AID 2221; in the data active = inhibition above about 30%; inconclusive = no clear call, values can overlap the other calls;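 note: 0% = vehicle wells and 100% = reference inhibitor control wells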
# Target sequence (P9WHJ3 whole entry, looked up, canonical isoform): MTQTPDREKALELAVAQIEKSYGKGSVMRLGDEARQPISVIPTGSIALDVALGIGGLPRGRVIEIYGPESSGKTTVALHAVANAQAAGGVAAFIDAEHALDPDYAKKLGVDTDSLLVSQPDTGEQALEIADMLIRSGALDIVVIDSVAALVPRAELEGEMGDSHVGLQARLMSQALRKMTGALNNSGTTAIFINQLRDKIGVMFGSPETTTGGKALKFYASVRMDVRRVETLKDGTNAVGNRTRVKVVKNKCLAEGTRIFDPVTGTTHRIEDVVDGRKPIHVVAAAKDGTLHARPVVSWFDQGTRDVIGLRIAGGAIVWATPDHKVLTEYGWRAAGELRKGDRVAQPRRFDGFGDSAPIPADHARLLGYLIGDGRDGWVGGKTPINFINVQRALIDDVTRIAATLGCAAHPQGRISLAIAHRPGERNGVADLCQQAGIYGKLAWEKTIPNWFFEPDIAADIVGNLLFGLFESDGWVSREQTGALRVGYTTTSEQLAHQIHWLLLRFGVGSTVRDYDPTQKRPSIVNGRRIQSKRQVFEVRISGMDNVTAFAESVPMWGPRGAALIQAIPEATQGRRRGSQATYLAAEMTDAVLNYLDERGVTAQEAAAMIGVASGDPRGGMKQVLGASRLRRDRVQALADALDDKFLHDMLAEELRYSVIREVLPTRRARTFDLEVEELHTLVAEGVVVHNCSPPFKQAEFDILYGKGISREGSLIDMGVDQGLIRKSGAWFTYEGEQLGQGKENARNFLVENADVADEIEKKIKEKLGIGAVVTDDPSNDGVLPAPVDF
# Mtb betalactam: beta-lactam sensitization of Mtb H37Rv; AID 434955; inhibition, % at 25 µM; M. tuberculosis H37Rv growth with meropenem, percent inhibition; hits of this screen are not shown here; 330,000 compounds, 0.27% hits;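 active = about 74% or more and at least 40 points above the plate without the antibiotic, then above 30% in a dose series; inconclusive = first-round hits that could not be retested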;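 note: growth measured after seven days incubation then overnight dye step; 0% = bacteria only wells and 100% = bacteria with antibiotic; twin plates without the antibiotic show which effects depend on it; some results filed as inactive read as strong as hits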
# Arbovirus inh: blocks arbovirus infection | 200,000 compounds, 0.37% hits | arbovirus infection cell-based antiviral screen | AID 1251 | inhibition, % at 10 µM;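 active = inhibition from about 30%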;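 note: bluetongue infection of BSR cells; cell survival read as ATP light after 72 h; 0% = infected wells without compound and 100% = uninfected wells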
# Arbovirus inh repeat: also measured in Arbovirus inh; calls as there; inhibition, %; measured here: 10K subset replicate screen; many hits read low in the repeat;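 first of two repeat runs on a subset; 0% = infected and 100% = uninfected wells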
# The depositor's hits bear a star; ? = inconclusive; nt = not tested or not shown.
SMILES,YopH inh,Mtb growth,RecA splice inh,Mtb betalactam,Arbovirus inh,others
CCN(CC)C(=O)CSc1nnc(CNc2ccc(F)cc2)o1,21,-4%,-0.6,-6,6,
COc1cc(/C=C(/C#N)c2ccc(C)cc2)ccc1Oc1ccc([N+](=O)[O-])cn1,-36,6%,2.0,7,30,
COc1cnn(-c2ccc([N+](=O)[O-])cc2)c(=O)c1Cl,nt,nt,8.8,13,nt,
CN(C)c1ccc(/C=C/c2nc3ccccc3c(=O)[nH]2)cc1,nt,nt,-2.7,9,nt,
O=C(Cn1nnc2ccccc21)N/N=C/c1ccco1,-46,2%,-0.2,-8,0,
COc1ccc(-c2nsc3c(N4CCN(C(=O)c5ccco5)CC4)ncnc23)cc1,-44,2%,-1.3,0,8,
COc1cc(OC)cc(C(=O)N[C@H](C(=O)Nc2nc3ccccc3[nH]2)C(C)C)c1,nt,2%,-1.2,nt,-14,
COc1ccc(-n2nc(C(=O)NCc3cc(OC)ccc3OC)c3c4ccccc4n(C)c3c2=O)cc1,nt,-11%,0.5,11,-12,
CCc1nn(CCCC(=O)N2CCN(c3ccc(OC)cc3)CC2)c(=O)c2cc3occc3n12,nt,nt,2.0,-7,nt,
COc1cc(C2NC(=O)N(C)C3=C2C(=O)CCC3)cc(OC)c1OC (centres undefined),-40,-8%,-0.2,1,7,Arbovirus inh repeat=-2
CC(C)(C)c1ccc(Oc2ncccc2NC(=O)c2cccs2)cc1,nt,-5%,nt,-1,nt,
COc1ccccc1NC(=O)c1cc[n+](C)cc1,nt,nt,0.8,6,nt,
COc1ccc(-n2nc(C(=O)NCC(=O)N3CCCC(C)C3)c3ccccc3c2=O)cc1Cl (centres undefined),nt,nt,2.7,12,nt,
COc1ccc(CN2C(=O)c3cccnc3C2=O)cc1S(=O)(=O)N1CC(C)Oc2ccccc21 (centres undefined),nt,nt,2.8,?,nt,
CC(C)(C)c1ccc(-c2csc(NC(=O)CN3C(=O)NC4(CCCCC4)C3=O)n2)cc1,2,7%,3.3,-1,-9,
NCCCCCNC(=O)/C=N\O,-20,-8%,-3.1,-7,0,
Cc1ccc(OCC(=O)Nc2ccc3c(c2)OCCO3)cc1C,nt,24%,1.6,2,3,
C(=N\N1CCN(C2c3ccccc3-c3ccccc32)CC1)/c1ccccn1,-44,-2%,13,98,9,
COc1cc(OC)cc(-n2nnnc2SCC(=O)NC2CCCC2)c1,-6,1%,-1.3,-5,1,
COc1ccc(OC)c(Nc2nc(-c3sc(N)nc3C)cs2)c1,-7,-3%,13,45,-18,
O=C(NCC1CCCO1)c1nn2cccnc2c1Cl (centres undefined),-17,-7%,4.7,-11,-4,
Cc1cccc[n+]1CC(=O)c1ccc2c(c1)OCCO2,-23,-1%,-1.0,0,9,
CC(=O)Oc1ccc(C(=O)Nc2nccs2)cc1,-45,6%,2.8,-7,6,Arbovirus inh repeat=-2
CS(=O)(=O)N(CC(=O)NC1CCCC1)C1CCCCC1,nt,0%,-0.9,-3,-1,
Cc1ccc(/C=N/NC(=O)c2ccc(C(=O)N/N=C/c3ccc(C)s3)o2)s1,-27,-2%,-34,-10,-1,

# Structures listed so far that contain an NH in an aromatic ring:
SMILES,YopH inh,Mtb growth,RecA splice inh,Mtb betalactam,Arbovirus inh,others
CN(C)c1ccc(/C=C/c2nc3ccccc3c(=O)[nH]2)cc1,nt,nt,-2.7,9,nt,
COc1cc(OC)cc(C(=O)N[C@H](C(=O)Nc2nc3ccccc3[nH]2)C(C)C)c1,nt,2%,-1.2,nt,-14,

# (list continues)
SMILES,YopH inh,Mtb growth,RecA splice inh,Mtb betalactam,Arbovirus inh,others
CS(=O)(=O)N(CC(=O)N1CCCCC1)Cc1ccc(Cl)cc1,-11,-5%,-2.5,-3,12,
COc1cc(NC(=S)N2CCN(CCO)CC2)c(OC)cc1Cl,nt,2%,-2.9,4,2,
Cc1ccsc1C(=O)OCc1csc(-c2ccccc2)n1,-17,5%,5.7,-7,2,
O=C(NC1=NCCS1)c1ccc(Cl)c(S(=O)(=O)N2CCCC2)c1,nt,-4%,-2.3,-1,32*,
c1ccc2nc3c(nc2c1)CCc1nonc1-3,-19,-3%,0.4,2,-5,
CC(C)c1nc(SCC(=O)Nc2cccc(S(N)(=O)=O)c2)n[nH]1,-10,-5%,2.1,-4,1,
CCN(Cc1ccccc1)C(=O)c1cc2cc(OC)c(OC)cc2[nH]1,nt,nt,-1.9,-7,nt,
CCCOc1ccc(Cc2nn[nH]n2)cc1,-12,-4%,3.2,-7,3,
O=C(NCc1ccccc1)C1CCCN(S(=O)(=O)c2cccc3nonc23)C1 (centres undefined),-26,-1%,-8.7,-4,-2,
CCOC(=O)c1ccc(-c2c(-c3ccc4c(c3)OCO4)noc2-c2ccsc2)cc1F,nt,nt,-2.0,-3,nt,
O=C(NCCCN1CCOCC1)c1onc(CSc2nc3ccccc3[nH]2)c1C(=O)NCCCN1CCOCC1,nt,nt,16,0,nt,
Cc1ccc(-c2cc(C(=O)Nc3ccc(S(=O)(=O)Nc4cc(C)on4)cc3)c3ccccc3n2)c(C)c1,10,9%,8.9,18,0,
CC1Cn2c(nc3sc4c(c3c2=O)CC(C)(C)OC4)N1CCO (centres undefined),nt,nt,-2.3,5,nt,
COc1cc(O)oc1C=Nc1ccc(Oc2ccccc2)cc1,3,?,5.5,99,0,
O=C(O)c1cccc(NC(CNS(=O)(=O)c2ccc(Cl)cc2)c2ccccc2)c1 (centres undefined),nt,3%,1.7,-8,6,
Cc1ccccc1N1CCN(C2CCCN(C(=O)c3ccsc3)C2)CC1 (centres undefined),nt,nt,-0.6,-5,nt,
Cc1ccc(/C=C2/CCc3c([nH]c4ccccc34)C2=O)cc1,-23,nt,0.4,-1,9,
O=C(NCc1ccccc1)c1cc(S(=O)(=O)N2CCCCC2)ccc1N1CCOCC1,nt,4%,-1.4,-1,7,
Cc1nc2ccccc2c(=O)n1CCN1CCOCC1,17,8%,-2.6,2,4,
BrC(/C=N/Nc1nc(N2CCOCC2)nc(N2CCOCC2)n1)=C/c1ccccc1,-37,-2%,0.1,8,3,
CC(=O)NS(=O)(=O)c1ccc(NC(=O)C(Sc2ccccc2)c2ccccc2)cc1 (centres undefined),-49,-12%,8.1,14,15,
CCOc1ccccc1C(=O)NC(C(=O)OCC(=O)Nc1nnc(-c2ccccc2)o1)C(C)C (centres undefined),-48,-2%,0.4,0,-7,
Cc1c(CCOC(=O)c2ccccc2)sc[n+]1Cc1ccccc1,-13,-2%,-0.3,-3,-2,
O=C(CC1C(=O)NCCN1C/C=C/c1ccccc1)NCCc1cccnc1 (centres undefined),nt,-1%,-1.4,-1,2,
CCC(=O)c1ccc(OCC(=O)OC(C)C(=O)NCc2ccc3c(c2)OCO3)cc1 (centres undefined),nt,nt,-1.2,3,nt,
SMILES,YopH inh,Mtb growth,RecA splice inh,Mtb betalactam,Arbovirus inh,others
COCCCNC(=O)C(=O)N/N=C/c1cc2c(cc1Br)OCO2,nt,-6%,-1.1,-3,0,
CCOP(=O)(OCC)/C(C#N)=C/c1ccoc1,nt,-15%,2.2,4,nt,
COc1ccccc1NC(=O)NNC(=O)CCc1ccccc1,nt,nt,1.0,-4,nt,
COc1ccc(-c2onc(C)c2-c2ccc(C(=O)OC(C)C)o2)c(O)c1,-38,nt,-0.3,4,14,
O=C1c2cccc3c2N(CCC3)C(=O)C1(F)c1ccccc1 (centres undefined),nt,nt,2.6,-3,nt,
CCCOc1ccc(C(=O)NC(=S)N2CCN(c3cc4c(cc3F)c(=O)c(C(=O)O)cn4CC)CC2)cc1,nt,nt,-1.9,69,nt,
CCOC(=O)c1[nH]c2c(c1C)C(=O)CC(c1ccc(OCC)c(OC)c1)C2 (centres undefined),-40,3%,-0.7,-5,2,
COCCN(C(=O)COC(=O)c1cnc(C)cn1)c1c(N)n(Cc2ccccc2)c(=O)[nH]c1=O,nt,nt,-1.4,-7,nt,
COc1cccc(CC2(CO)CCCN(Cc3cn[nH]c3-c3cc(C)ccc3C)C2)c1 (centres undefined),nt,-9%,0.4,0,-5,
O=C(N/N=C/c1ccncc1)c1sc2ccccc2c1Cl,nt,nt,1.5,100,nt,
CC1CCCCN1C(=O)CSc1nnc(-c2ccco2)o1 (centres undefined),nt,nt,1.0,-1,nt,
NNC(=O)c1sc2cc(C(F)(F)F)cnc2c1-c1cccnc1,nt,-5%,nt,-1,-8,
C=C(C)CSc1nc2c(cc1C#N)CCC2,10,2%,-3.7,-5,-5,Arbovirus inh repeat=-3
Cc1cc2nc(-c3cccnc3SCC(=O)NC(C)C)[nH]c2cc1C,nt,1%,-2.3,3,-3,
Cc1ncc(CO)c(/C=N/NC(=O)c2cc(O)c(O)c(O)c2)c1O,nt,0%,-6.9,nt,0,
COC(=O)c1ccc(/C=C2/SC(=S)N(CCCC(=O)Nc3ccc(O)cc3)C2=O)cc1,nt,nt,5.6,59,nt,
COC(=O)c1ccc(CSc2nnc(NC(=O)C3CC(=O)N(c4ccc5c(c4)OCCO5)C3)s2)cc1 (centres undefined),0,-2%,4.6,4,4,
CCN(CC)S(=O)(=O)c1cc(NC(=O)c2ccc(-n3cncn3)c([N+](=O)[O-])c2)ccc1C,nt,nt,1.3,-11,nt,
O=C1OC(Nc2ccc3ncccc3c2)c2ccccc21 (centres undefined),-18,?,nt,6,4,
O=C(Nc1cccnc1)c1ccc(-c2ccc(Cl)cc2)o1,nt,?,1.5,41,-14,
CC(Oc1ccccc1)C(=O)N=C1SC2CS(=O)(=O)CC2N1Cc1ccc(F)cc1 (centres undefined),nt,nt,2.3,-3,nt,
COc1ccc(Cl)cc1C(=O)CSc1nnnn1C1CCCC1,-48,-7%,nt,-11,-3,
CS(=O)(=O)c1ccc(Cl)c(NC(=O)COC(=O)CCCN2C(=O)c3cccc4cccc(c34)C2=O)c1,nt,nt,-3.0,2,nt,
CCOC(=O)Cc1csc(NC(=O)c2ccc(S(=O)(=O)N(CCOC)CCOC)cc2)n1,nt,1%,-1.1,-9,6,
CCCCCSc1nc2c(c(=O)[nH]c(=O)n2C)n1C,-41,11%,-1.4,-1,5,Arbovirus inh repeat=-3

# The final five entries of the part before come first, to join the parts.
SMILES,YopH inh,Mtb growth,RecA splice inh,Mtb betalactam,Arbovirus inh,others
CC(Oc1ccccc1)C(=O)N=C1SC2CS(=O)(=O)CC2N1Cc1ccc(F)cc1 (centres undefined),nt,nt,2.3,-3,nt,
COc1ccc(Cl)cc1C(=O)CSc1nnnn1C1CCCC1,-48,-7%,nt,-11,-3,
CS(=O)(=O)c1ccc(Cl)c(NC(=O)COC(=O)CCCN2C(=O)c3cccc4cccc(c34)C2=O)c1,nt,nt,-3.0,2,nt,
CCOC(=O)Cc1csc(NC(=O)c2ccc(S(=O)(=O)N(CCOC)CCOC)cc2)n1,nt,1%,-1.1,-9,6,
CCCCCSc1nc2c(c(=O)[nH]c(=O)n2C)n1C,-41,11%,-1.4,-1,5,Arbovirus inh repeat=-3
O=C(Nc1ccc2c(c1)OCO2)N1CCN(c2ccc(F)cc2)CC1,nt,-6%,-3.3,4,-23,
CCc1ccnc(NC(=O)Nc2ccc(OCc3ccccc3)cc2)c1,nt,nt,-3.6,-1,nt,
Cc1ccc(C(=O)Cn2nnc3ccccc32)cc1[N+](=O)[O-],nt,3%,0.8,3,nt,
CC(C)Oc1ccc(CC2CC(=O)NC2=O)cc1 (centres undefined),-31,-9%,-0.3,-14,6,
CC(C)NC(=O)COc1ncnc2sccc12,0,-4%,-1.9,-7,14,
CC(C(=O)Nc1nncs1)N1C(=O)C2C3C=CC(C3)C2C1=O (centres undefined),nt,-1%,-0.5,-6,2,
COc1cccc(CNCc2cccnc2)c1OCc1ccccc1,nt,3%,0.0,-13,-4,
O=S(=O)(Nc1ncnc2sc3c(c12)CCC3)c1ccc2ccccc2c1,-20,-14%,nt,-3,16,
O=C(N/N=C/c1ccc([N+](=O)[O-])s1)c1ccncc1,-9,-7%,-4.2,99,6,

# 7 entries drawn at random from those above, as already listed:
SMILES,YopH inh,Mtb growth,RecA splice inh,Mtb betalactam,Arbovirus inh,others
O=C(N/N=C/c1ccc([N+](=O)[O-])s1)c1ccncc1,-9,-7%,-4.2,99,6,
CC(C)Oc1ccc(CC2CC(=O)NC2=O)cc1 (centres undefined),-31,-9%,-0.3,-14,6,
O=C(Nc1ccc2c(c1)OCO2)N1CCN(c2ccc(F)cc2)CC1,nt,-6%,-3.3,4,-23,
COc1cccc(CNCc2cccnc2)c1OCc1ccccc1,nt,3%,0.0,-13,-4,
CC(C(=O)Nc1nncs1)N1C(=O)C2C3C=CC(C3)C2C1=O (centres undefined),nt,-1%,-0.5,-6,2,
Cc1ccc(C(=O)Cn2nnc3ccccc32)cc1[N+](=O)[O-],nt,3%,0.8,3,nt,
CCc1ccnc(NC(=O)Nc2ccc(OCc3ccccc3)cc2)c1,nt,nt,-3.6,-1,nt,

# An excerpt; rates above refer to the full screens.
